# KCNQ2 pot: potentiators of rat KCNQ2 potassium channel; CHO-K1 KCNQ2, FluxOR thallium flux fluorescence; hits give high values; B-score at 10 µM; actives 0.54% (n = 310,000); AID 2239, 2010;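 active = fluorescence ratio B-score at least 3 SD of library B-scores, with initial fluorescence B-score within 3 SD, cut at about 5.3 in these data; same plate scores as AID 2156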;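 also: B-score of peak minus minimum over baseline fluorescence ratio after K+ and Tl+ stimulus; positive B-score means potentiation of KCNQ2 with more thallium influx and brighter signal; only the inactives scoring about 0 or higher are listed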
# Target sequence (O88943 whole entry, looked up): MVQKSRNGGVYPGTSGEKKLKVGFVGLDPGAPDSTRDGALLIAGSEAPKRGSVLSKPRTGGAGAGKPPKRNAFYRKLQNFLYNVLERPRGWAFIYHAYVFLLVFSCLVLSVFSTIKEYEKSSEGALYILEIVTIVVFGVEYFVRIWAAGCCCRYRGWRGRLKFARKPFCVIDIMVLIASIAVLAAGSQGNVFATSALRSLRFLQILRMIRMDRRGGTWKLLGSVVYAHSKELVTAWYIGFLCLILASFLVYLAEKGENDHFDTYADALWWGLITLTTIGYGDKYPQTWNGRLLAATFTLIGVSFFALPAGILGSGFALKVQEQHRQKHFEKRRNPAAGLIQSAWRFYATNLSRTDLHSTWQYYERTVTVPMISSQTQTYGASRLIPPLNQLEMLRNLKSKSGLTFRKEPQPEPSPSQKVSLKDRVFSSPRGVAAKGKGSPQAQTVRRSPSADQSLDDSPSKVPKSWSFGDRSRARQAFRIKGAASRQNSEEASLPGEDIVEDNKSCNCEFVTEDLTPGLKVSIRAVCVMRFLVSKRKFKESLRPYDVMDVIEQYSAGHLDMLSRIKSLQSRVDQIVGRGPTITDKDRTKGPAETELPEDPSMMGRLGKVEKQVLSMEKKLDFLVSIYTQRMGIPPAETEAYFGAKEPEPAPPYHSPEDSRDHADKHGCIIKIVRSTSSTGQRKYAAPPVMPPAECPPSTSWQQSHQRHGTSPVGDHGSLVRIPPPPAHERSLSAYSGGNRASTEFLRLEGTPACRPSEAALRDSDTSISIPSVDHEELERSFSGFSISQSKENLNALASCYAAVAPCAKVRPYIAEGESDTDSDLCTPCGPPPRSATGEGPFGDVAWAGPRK
# KCNQ2 pot baseline: recorded beside KCNQ2 pot, whose call it bears; B-score; compound at 10 µM; measured here: initial fluorescence intensity artifact check;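 brightness before thallium and not channel activity; 0 = typical well and far values either way flag optical interference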
# * = called active by the depositor; / = no result given. Some of the compounds tested; rates above refer to the full screens.
SMILES | KCNQ2 pot | KCNQ2 pot baseline
COc1ccccc1CCNC(=O)Cn1ccc2cc(S(=O)(=O)N3CCC(C)CC3)ccc21 | 0.37 | 0.53
C/C(=N\NC(=O)C1COc2ccccc2O1)c1ccc(Cl)s1 (stereo not given) | 0.36 | -0.69
CCOC(=O)C1=C(COC(=O)/C=C/c2ccccc2Cl)NC(=O)NC1C (stereo not given) | 1.06 | -1.18
Cc1cccc(NC(=O)COC(=O)c2ccccc2SCC(=O)N2CCCC2)c1 | 1.63 | -1.05
COc1ccc(OC)c(-c2nc(CN3CCCCC3c3cccnc3)c(C)o2)c1 (stereo not given) | 1.63 | -0.35
O=C(O)c1cc(NS(=O)(=O)c2ccc(NCc3ccccc3)c([N+](=O)[O-])c2)cc(C(=O)O)c1 | 0.05 | -1.96
COc1ccc(NC(=O)c2sc3nc(-c4cccnc4)ccc3c2N)cc1 | 0.03 | -0.68
O=C(c1cc(Cl)nc2ccccc12)N1CCN(S(=O)(=O)c2cccc(C(F)(F)F)c2)CC1 | 1.47 | 0.41
CCC(=O)NC1(C(F)(F)F)C(=O)Nc2c1c(=O)[nH]c(=O)n2Cc1ccco1 (stereo not given) | 0.85 | 0.07
Cc1ccc(NS(=O)(=O)c2cc(C(=O)Nc3cccc(N(C)S(C)(=O)=O)c3)ccc2C)c(C)c1 | 0.02 | -0.2
N#CC1=C(N)Oc2n[nH]c(-c3cccs3)c2C1c1ccsc1 (stereo not given) | 0.24 | 0.06
CCN1C(=O)N/C(=C/c2cc(C)n(Cc3ccccc3)c2C)C1=O | 1.2 | 0
OCCCCNCc1cc(Br)ccc1OCc1ccccc1 | 0.13 | 0.12
COc1ccccc1NC(=O)COC(=O)c1ccccc1SCC(=O)N1CCCC1 | 0.1 | 0.76
COc1ccc(Cc2nc3ccc(S(N)(=O)=O)cc3[nH]2)cc1OC | 0.19 | 0.04
Cc1cc(C)c(S(=O)(=O)N2CCC(C(N)=O)CC2)cc1C | 0.26 | -1.56
Nn1c(Cc2cccc3ccccc23)nnc1SCc1c(Cl)cccc1Cl | 0.44 | 2.46
CN(C)C(=O)c1cc(C(=O)c2ccc(F)cc2C(F)(F)F)c[nH]1 | 0.12 | -1.55
CCn1c(COc2ccc3c(c2)OCO3)nnc1SCC(=O)O | 0.41 | 0.43
CCOC(=O)c1cc(C#N)c(C)nc1N(CC)CC | 1.1 | 0.7
COc1cc(C(=O)OCCN2CCCCC2)ccc1O | 0.52 | 2.85
O=C(Nc1ccc(Br)cc1)C1CCN(C(=O)c2ccco2)CC1 | 0.26 | -0.38
CC(C)(C)NC(=O)Cn1c(SCC(=O)NCc2cccs2)nc2ccccc21 | 0.04 | 0.65
COc1cc(NC(=O)CN2c3cccc4cccc(c34)S2(=O)=O)cc(OC)c1OC | 1.17 | 1.37
O=C(/C=C1\NC2(CCCC2)Cc2ccccc21)C(=O)N/N=C/c1ccc(O)c(O)c1 | 0.61 | -0.14
O=C(NCCC1=CCCCC1)c1ccc(Cl)c(S(=O)(=O)N2CCOCC2)c1 | 1.03 | -0.51
N#Cc1c(-c2ccccc2)nc(N2CCOCC2)[nH]c1=O | 0.99 | 0.72
CCOC(=O)c1ccc(NC(=O)N2C3CCCC2CC(NC(C)=O)C3)cc1 (stereo not given) | 0.68 | 1.01
Cc1ncc(S(=O)(=O)c2ccc(Cl)cc2)c(N)n1 | 1.14 | -1.15
CCCc1nc(NC(C)=O)c(C#N)c(-c2ccco2)c1CC | 1.26 | 0.93
CCC(=O)c1c[nH]c(C(=O)NCC2CCCO2)c1 (stereo not given) | 1.28 | -1.92
COc1cc(/C=C(\C#N)c2[nH]nc(N)c2C#N)cc(OC)c1O | 1.64 | 0.27
O=C(c1ccco1)N1CCN(Cc2nnc(-c3cccc(Cl)c3)o2)CC1 | 1.15 | 1.79
CC1(C2CC(C(F)(F)F)n3nc(C(=O)O)cc3N2)CC1 (stereo not given) | 0.07 | -0.23
Cc1ccc(N(CC(=O)NC(C)(C)C)C(=O)CNC(=O)c2cccs2)c(C)c1 | 0.51 | 0.02
Cc1cccc(NC(=O)c2ccoc2C)n1 | 1.59 | 0.55
CCCC(=O)Nc1ccc(C(=O)NCC2CCCO2)cc1 (stereo not given) | 1.2 | -2.03
COc1ccc(-n2c(SCC(=O)Nc3cc(C)on3)nc3c([nH]c4ccccc43)c2=O)cc1OC | 0.12 | -1.3
Cc1ccc2nc(SCc3nc4c(cnn4-c4ccccc4)c(=O)[nH]3)[nH]c2c1 | 1.47 | -0.43
N#CCN1CCN(CCC(=O)Nc2ccc(OCc3ccccc3)cc2)CC1 | 0.74 | 0.38
O=C(NC1CCCCC1)c1ccc2[nH]c(=O)c(=O)[nH]c2c1 | 1.23 | 0.38
CCOCCCNC(=O)c1cc2c(s1)-c1ccccc1SC2 | 0.75 | -0.77
Cc1cccc(-c2nnc(SCC#N)n2-c2cccc(Cl)c2)c1 | 0.14 | -0.03
COc1cc2c(cc1OC)-c1cc(Nc3ccc(C)cc3)nc(=O)n1CC2 | 1.35 | -0.16
CC(C)Oc1ccc(NC(=O)Oc2ccccc2)cc1 | 0.04 | 0.07
COc1ccc(C2CCCN2C(=O)Nc2ccc(Cl)cc2)cc1OC (stereo not given) | 0.47 | 0.01
Cc1ccc2c(cnn2C(=O)CCC(=O)NCc2cccc(Br)c2)c1 | 0.04 | 0.8
CCOC(=O)N1CCN(C(=O)CSc2nc3c(cnn3-c3ccccc3)c(=O)[nH]2)CC1 | 0.73 | 0.65
CCOC(=O)CSc1nc2cccnc2n1C | 0.84 | -0.59
COc1cc(CN2CCC(n3nccc3NC(=O)C3CCOC3)CC2)ccc1F (stereo not given) | 1.51 | -0.34
O=C(N/N=C/c1c[nH]c2ccccc12)c1ccccc1Cl | 0.12 | -0.68
O=C(Cc1cccc(C(F)(F)F)c1)NCc1cccc(Cl)c1 | 3.65 | -0.66
NC(N)=NC(=O)c1nc(Cl)c(N)nc1N | 0.42 | /
N/C(=N\N=C\c1ccc(O)cc1)c1nonc1N | 0.52 | 1.04
CN1CCN(CC(=O)Nc2c(C#N)cnn2-c2ccccc2)CC1 | 0.06 | 2.37
Cc1ccccc1OCC(=O)NCCNC(=O)c1ccncc1 | 0.39 | 0.35
CC(=O)n1cc([C@H]2C=C(C(=O)N3CCOCC3)O[C@@H](OCCCCO)C2)c2ccccc21 | 0.88 | -0.1
COc1ccc(NC(=S)Nc2ccc(Oc3ccccc3)cc2)cc1 | 0.55 | -0.73
CC(=O)Nc1ccc(C(=O)OCCc2ccccc2)cc1 | 0.24 | 2.53
Cc1cc(C)n2nc(-c3ccc(Cl)cc3)cc2n1 | 1.7 | -0.02

# Next part:
SMILES | KCNQ2 pot | KCNQ2 pot baseline
NC(=O)N/N=C/c1cn(CC(=O)Nc2ccc(F)cc2)c2ccccc12 | 0.29 | -0.53
Cn1cc(-c2nnnn2-c2ccc(Cl)cc2)c(=O)c2ccccc21 | 0.14 | -1.09
Cc1ccc(-c2nc(CS(=O)CC(=O)NCCC(C)C)c(C)o2)cc1 (stereo not given) | 3.45 | -1.73
O=C(Cn1cnc2ccccc2c1=O)c1ccc(Cl)cc1 | 0.72 | 0.35
CCOC(=O)[C@H](O)[C@@H](O)c1cccc([C@H](O)[C@@H](O)C(=O)OCC)c1 | 0.67 | 0.59
CC(C)(C)NC(=O)c1cc(NC(=O)c2cccs2)cc(NC(=O)c2cccs2)c1 | 0.76 | -0.87
O=C(Cn1ncc2c3ccccc3n(Cc3cccc(Cl)c3)c2c1=O)NCC1CCCO1 (stereo not given) | 8.18* | 0.54*
Cc1occc1C(=O)N/N=C/C1=C(N2CCOCC2)C(=C\c2ccc(Cl)cc2)/CC1 | 0.3 | -0.11
O=C1S/C(=C\c2ccc(Cl)cc2)C(=O)N1CCn1cnnn1 | 0.24 | -0.72
O=C(O)C1CCCN(S(=O)(=O)c2ccc3c(c2)OCCO3)C1 (stereo not given) | 0.61 | 0.52
OCCNCCSc1ccc(Cl)cc1 | 1.19 | 0.04
COc1cccc(CNC(=O)CCC2CCCN(C(=O)c3ccc(C)nc3)C2)c1 (stereo not given) | 1.42 | -0.95
CC(C)OCC(O)CN1CCNCC1 (stereo not given) | 0.02 | 0.94
COc1ccccc1N1CCN(C(=O)c2cn(C)c3ccc(S(=O)(=O)N4CCOCC4)cc3c2=O)CC1 | 0.36 | -0.02
CC(C)CC(=O)Nc1ccc2c3c(cccc13)CC2 | 25.5* | 2.79*
CC(/C=C/c1ccc(N(C)C)cc1)=N/N=C1/NC(=O)CC(C(=O)Nc2ccc(Cl)cc2)S1 (stereo not given) | 0.19 | 0.64
COc1cc2c(cc1OC)CN(C1CCC(C)CC1)CC2 (stereo not given) | 1.65 | 1.1
COC(C(=O)Nc1ccc(F)cc1)c1ccccc1 (stereo not given) | 0.03 | -0.46
COc1cc(C(=O)NC2CCCc3ccccc32)ccc1OCC(=O)Nc1ccc(F)cc1 (stereo not given) | 0.83 | -0.04
O=C(CSc1ncccn1)NC1CCS(=O)(=O)C1 (stereo not given) | 1.06 | 0.86
Cc1ccc(-n2nc3c(N4CCC(C(=O)N5CCCCCC5)CC4)nnc(C)c3c2C)cc1 | 3.72 | 1.37
COc1cccc(NC(=O)N2CCCC(C(=O)Nc3ccccc3OC)C2)c1 (stereo not given) | 1.22 | -0.69
COc1ccc(OCCN2CCN(C3CC(=O)N(CCC(C)C)C3=O)CC2)cc1 (stereo not given) | 0.11 | 0.89
COc1ccc(CN(CC(=O)NCC2CCCO2)C(=O)CCC(=O)Nc2nccs2)cc1 (stereo not given) | 0.12 | 1.55
CN(C)/C=C/C(=O)c1ccc(Br)s1 | 1.8 | 1.2
CC(=O)[C@@]1(O)CC[C@H]2[C@@H]3CCC4=CC(=O)CC[C@]4(C)[C@H]3CC[C@@]21C | 0.03 | 1.3
CC(=O)c1c(C)[nH]c(C(=O)OCC(=O)Nc2ncc(Cl)c(C)c2Cl)c1C | 0.28 | 1.96
CSc1ncc(C(=O)NCCCc2ccccc2)c(C)n1 | 0.31 | -0.3
CN(C)CCNc1cnn(-c2ccccc2)c(=O)c1Cl | 0.04 | 0.39
CCN(CC)S(=O)(=O)c1ccc(N2CCOCC2)c(NC(=O)CCC2CCCCC2)c1 | 0.3 | 0.08

# 3 successive entries out of the list so far, quoted:
SMILES | KCNQ2 pot | KCNQ2 pot baseline
COc1ccc(CN(CC(=O)NCC2CCCO2)C(=O)CCC(=O)Nc2nccs2)cc1 (stereo not given) | 0.12 | 1.55
CN(C)/C=C/C(=O)c1ccc(Br)s1 | 1.8 | 1.2
CC(=O)[C@@]1(O)CC[C@H]2[C@@H]3CCC4=CC(=O)CC[C@]4(C)[C@H]3CC[C@@]21C | 0.03 | 1.3

# Compound profiles, from the list above. Screens in order: KCNQ2 pot, KCNQ2 pot baseline
# O=C(O)C1CCCN(S(=O)(=O)c2ccc3c(c2)OCCO3)C1 (stereo not given) in the list: 0.61, 0.52
# O=C1S/C(=C\c2ccc(Cl)cc2)C(=O)N1CCn1cnnn1 in the list: 0.24, -0.72
# O=C(Cn1cnc2ccccc2c1=O)c1ccc(Cl)cc1 in the list: 0.72, 0.35

# The main list resumes, starting 3 compounds before the break.
SMILES | KCNQ2 pot | KCNQ2 pot baseline
CSc1ncc(C(=O)NCCCc2ccccc2)c(C)n1 | 0.31 | -0.3
CN(C)CCNc1cnn(-c2ccccc2)c(=O)c1Cl | 0.04 | 0.39
CCN(CC)S(=O)(=O)c1ccc(N2CCOCC2)c(NC(=O)CCC2CCCCC2)c1 | 0.3 | 0.08
COc1ccc(/C=N/n2cncn2)cc1Cn1cc([N+](=O)[O-])cn1 | 0.22 | -0.98
O=C(O)C1SCCN1S(=O)(=O)c1ccc(N=NN2CCOCC2)cc1 (stereo not given) | 1.21 | 0.23
Cc1ccc(NS(=O)(=O)c2ccc3c(c2)oc(=O)n3C)c(C)c1 | 0.8 | 2.76
CC(C)Oc1ccc(C(CC(=O)O)NC(=O)C(Sc2ccccc2)c2ccccc2)cc1 (stereo not given) | 1.18 | -0.38
CC(C)CCNC(=O)C1(O)c2ccccc2NC(=O)N1c1ccc(Cl)cc1 (stereo not given) | 0.01 | 1.27
O=C(NCc1ccccn1)C1CCN(S(=O)(=O)c2cnc[nH]2)CC1 | 0.65 | 0
COc1ccc(OC)c(S(=O)(=O)Nc2ccc(Oc3ccccc3)cc2)c1 | 0.04 | -1.64
Cc1ccc(C(=O)O/N=C2/CC3CCC2(C)[C@@]3(C)CBr)cc1 (stereo not given in full) | 0.15 | -2.56
COc1cccc2cc(-c3ccccc3)c(=O)oc12 | 0.24 | -0.84
O=c1cc(C(F)(F)F)nc(-c2cccnc2)[nH]1 | 0.3 | -0.77
COc1cccc2cc(S(=O)(=O)c3ccccc3)c(=Nc3ccc4c(c3)OCCO4)oc12 | 0.02 | -2.06
O=C(Nc1ccc2c(c1)OCCO2)C1CCCN1S(=O)(=O)c1ccc(Cl)cc1 (stereo not given) | 0.47 | -0.23
Cc1ccc(-n2nnc(-c3nccs3)n2)cc1 | 0.06 | -1.68
COc1ccc(NC(=O)CC2SC(=NCC3CCCO3)NC2=O)cc1 (stereo not given) | 0.16 | -0.48
COc1ccc(C(=O)COC(=O)c2c(-c3ccccc3)noc2C)c(OC)c1 | 0.12 | -0.69
COc1ccc(CCNC(=O)CCCNC(=O)Cn2cnc3sc(C)c(C)c3c2=O)cc1OC | 0.72 | -0.61
COc1c(N2C[C@@H]3CCCN[C@@H]3C2)c(F)cc2c(=O)c(C(=O)O)cn(C3CC3)c12 | 1.08 | -0.83
O=C(CSc1cccc[n+]1[O-])Nc1c(Br)cc([N+](=O)[O-])cc1Br | 2.73 | -0.15
O=C(Nc1cccnc1)c1c(O)c2cccc3c2n(c1=O)CC3 | 1.23 | -0.02
CCOc1ccccc1N1CCN(C(=O)CNC(=O)c2ccccc2F)CC1 | 0.69 | -1.02
Cc1ccc(-c2nc(N3CCN(C)CC3)c3ccccc3n2)cc1 | 0.04 | -0.3
O=C(c1cc2c(=O)n3ccccc3nc2s1)N1CCOCC1 | 0.8 | 1.11
O=C(Cc1ccccc1)NCCc1cccc(Cl)c1 | 11.1* | -0.18*
